# VDR inh: Inhibitors of the vitamin D receptor (VDR): qHTS; Potency, µM, inactives show max response, negative = inhibition, actives largely listed as inhibitors; VDR-SRC2-3 peptide fluorescence polarization, 2 h; 400,000 tested, 0.93% active; active = well fitted inhibition curve with a large enough effect; inconclusive = small, poorly fitted or top-dose-only effect, or another doubt; inactive = no such curve, though single readings can be large or run the other way; also: series mostly up to about 120 µM
# Target sequence (P11473 whole entry, looked up): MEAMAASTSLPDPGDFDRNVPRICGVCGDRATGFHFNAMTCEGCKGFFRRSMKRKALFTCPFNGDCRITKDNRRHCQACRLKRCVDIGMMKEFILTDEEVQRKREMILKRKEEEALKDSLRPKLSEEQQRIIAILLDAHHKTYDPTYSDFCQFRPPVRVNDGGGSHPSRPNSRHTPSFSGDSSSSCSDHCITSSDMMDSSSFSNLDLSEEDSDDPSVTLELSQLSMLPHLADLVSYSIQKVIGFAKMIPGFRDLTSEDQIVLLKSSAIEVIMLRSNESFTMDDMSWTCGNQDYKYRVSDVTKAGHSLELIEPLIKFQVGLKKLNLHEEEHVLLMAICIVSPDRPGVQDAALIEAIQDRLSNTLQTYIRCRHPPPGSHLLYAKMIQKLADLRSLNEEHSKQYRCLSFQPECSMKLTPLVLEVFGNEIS
#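 Measured by FP: displacement of SRC2-3 coactivator peptide from VDR by library compounds, following a two-hour ambient incubation.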
# * hit, by the source's call; ? = inconclusive; & = joins results of further samples; [ ] = remark or other dose. % is scaled to controls: 0 for no effect and ±100 for the full control effect; potency is read from the fitted curve at half-maximal effect. These rows are one share of the data, so the mix of outcomes need not match the whole.
VDR inh	compound
9%	Cc1ccc(C2Nc3cc(C)c(C)cc3-n3c(-c4ccccc4)c4c(=O)n(C)c(=O)n(C)c4c32)o1 (stereo not given)
9%	OCC(O)CS (stereo not given)
-5%	C#CCSc1nnc(-c2ccc([N+](=O)[O-])cc2)o1
-3%	Cc1ccc(NC(=O)C(Cc2ccccc2)NS(=O)(=O)c2ccc3c(c2)oc(=O)n3C)cc1F (stereo not given)
21%	COC(=O)c1c(-c2ccc3ccccc3c2)csc1NC(=O)Cc1ccc(OC)c(OC)c1
-16%	CC(C)NS(=O)(=O)c1ccc2c(c1)oc(=O)n2C
28%	CCC(=NC(CC)CO)C1=C(O)CC(C)(C)CC1=O (stereo not given)
-6%	O=C(Cc1c(F)cccc1Cl)N/N=C/c1cccs1
14%	Cc1ccc(-n2c(SCC(=O)NCc3ccco3)nc3sc4c(c3c2=O)CC(C)(C)SC4)cc1
-19%	COc1ccc(S(=O)(=O)NC(C)c2ccccc2)cc1C(=O)N1CCCCC1 (stereo not given)
10%	Cc1ccc2nc(C)c(C(=O)O)cc2c1
-3%	Cc1nn(Cc2ccc(Cl)cc2)c(C)c1NC(=O)Cn1nc([N+](=O)[O-])c(Cl)c1C
0%	Cc1cnn(CCC(=O)NNC(=S)NCC(C)C)c1
-15%	Cc1cc(C(=O)N2CCN(c3ncccn3)CC2)c(C)o1
4%	COc1cc(C(=O)NCCOc2cc(C)ccc2C(C)C)cc(OC)c1OC
-6%	O=C1CS/C(=N/N=C/c2cccs2)N1
9%	COc1ccc(CN2CCN(C(=O)CCC(=O)Nc3nnc(C(F)(F)F)s3)CC2)cc1F
2%	O=C(CN1C(=O)COc2ccc(S(=O)(=O)NC3CCCC3)cc21)Nc1ccc(Cl)cc1
8%	COC(=O)c1ccc(COc2ccc3c(c2)CCC3)o1
151%[activator]	O=C(Cn1nc(-c2ccccc2)ccc1=O)Nc1ccc(-n2cnnn2)cc1
3%	N/C(CC(=O)NC1CCCCC1)=N\OCC(=O)Nc1ccc(Cl)c(Cl)c1
-9%	NC(=O)c1cc2ccncc2c2ccccc12
1%	CC(Oc1ccc2c3c(c(=O)oc2c1)CCC3)C(=O)NCc1cccnc1 (stereo not given)
-6%	COc1ccc(S(=O)(=O)N(C)C)cc1NC(=O)CN1CCN(C(=O)C2CC2)CC1
-18%	C[C@H](NC(=O)C1CCN(S(=O)(=O)c2ccccc2)CC1)C(=O)NCc1ccccc1
-1%	Cn1nc(/C=C/c2ccccc2)ccc1=O
1%	Cc1cc(Cl)ccc1OC(C)C(=O)NNC(=O)C1CCCCC1C(=O)O (stereo not given)
-3%	COc1ccc(-c2cccc(C(=O)Nc3ccc(C)cc3)c2)cc1
6%	CCC(C(=O)N1CCCC1)n1nc(C)c2c(C)n(-c3ccccc3)nc2c1=O (stereo not given)
-12%	COc1ccc(C(=O)NCC(=O)OCC(=O)N2CC(C)OC(C)C2)cc1OC (stereo not given)
9%	CCOc1ccc(-n2c(=O)c3c(C)c(C)sc3n(Cc3ccccc3C)c2=O)cc1
8%	CNC(=O)C(=O)NCC(c1ccc2c(c1)OCO2)N1CCOCC1 (stereo not given)
-19%	Cc1cc(Nc2ccc(Cl)cc2)n2ncnc2n1
1%	COc1ccccc1C(=O)Nc1c2c(nn1-c1cccc(C)c1C)CS(=O)(=O)C2
-15%	CC(=O)c1cccc(NC(=O)C2CCN(S(=O)(=O)c3ccc4c(c3)oc(=O)n4C)CC2)c1
-4%	CCOc1ccc(CCNC(=O)COC(=O)CSc2ccc(C)cc2)cc1OCC
-2%	Cc1ccc(S(=O)(=O)N2CCOC2CNC(=O)C(=O)NCc2ccccn2)cc1 (stereo not given)
2%	CC(=O)Nc1ccc(NC(=O)CSc2cn(CC(=O)N(C(C)C)C(C)C)c3ccccc23)cc1
12%	CCc1ccc(NC(=O)CNC(=O)c2nn(-c3ccc(OC)cc3)c(=O)c3ccccc23)cc1
12%	CC1CCn2c(nc3cc(C(=O)NCCc4ccc(Cl)cc4)ccc32)C1 (stereo not given)
5%	O=C(Nc1ccc(S(=O)(=O)N2CCCC2)cc1)C1COc2ccccc2O1 (stereo not given)
-15%	Cc1ccc([C@H]2C(C(=O)O)=CC[C@@H](c3ccc4c(c3)OCO4)N2S(=O)(=O)c2ccc(C)cc2)cc1
-21%	CC(Sc1ccc(Cl)cc1)C(=O)NNC(=O)c1ccncc1 (stereo not given)
1%	COc1ccc(/C=N/n2cnc3scc(-c4cccs4)c3c2=O)cc1OC
4%	COC(=O)CCP(=O)(O)Cc1ccccc1CP(=O)(O)CCC(=O)OC
5%	Cc1ccc2c(cnn2C(=O)CCC(=O)N2CCCCC2)c1
9%	NC(=O)c1ccc(NC(=O)COC(=O)c2cc3ccccc3cc2O)cc1
-2%	O=C(O)CN1C(=O)c2ccc(Oc3ccc([N+](=O)[O-])cc3)cc2C1=O
10%	CC(NS(=O)(=O)c1ccc(Br)cc1)C(=O)NCc1ccco1 (stereo not given)
-1%	COc1ccc(NC(=O)CSc2oc(-c3cccs3)nc2S(=O)(=O)c2ccc(C)cc2)c(OC)c1
-19%	COc1cc(S(=O)(=O)NCc2ccccc2Cl)ccc1-n1cnnn1
4%	CC1CCCN(C(=O)c2cccc(S(=O)(=O)N3CCCC3)c2)C1 (stereo not given)
16%	OCCCNc1nc(-c2ccc(Br)cc2)nnc1-c1ccc(Cl)cc1
-5%	Cc1cc(C)cc(NC(=O)Oc2ccccc2N2CCCCC2)c1
-14%	COc1ccc(S(=O)(=O)N(CC(=O)NCc2ccncc2)Cc2ccccc2)cc1
10%	Cc1ccc(-c2c3c(=O)n(C)c(=O)n(C)c3cn2-c2cc(C)ccc2O)cc1
-23%	O=C1C2C(c3ccccc3)CC=CC2[C@H](c2cccc([N+](=O)[O-])c2)N1Cc1ccccc1 (stereo not given in full)
8%	CC1CCCCC12NC(=O)N(CC(=O)N1CCN(S(=O)(=O)/C=C/c3ccccc3)CC1)C2=O (stereo not given)
2%	Cc1cc(C)c(NC(=O)Cn2c(=O)n(CCc3ccccc3)c(=O)c3ccccc32)c(C)c1
16%	Cc1ccc(-c2cccc(CN3CCN(C(C)C)C(CCO)C3)c2)o1 (stereo not given)

# (next part)
VDR inh	compound
9%	Cc1ccc(N(CC(C)C)S(=O)(=O)c2nnc(NC(=O)c3cccs3)s2)cc1
-19%	Cn1cnnc1SCC(=O)c1ccc2c(c1)OCCO2
?	Cc1cccc(C(=O)NC2CCN(C(=O)Nc3ccccc3C)CC2)c1
-12%	Cc1ccc(S(=O)(=O)N[C@@H](CC(C)C)C(=O)N2CCC(C(=O)N[C@@H](Cc3ccccc3)C(=O)O)CC2)cc1
0%	CC(C)[C@H](NC(=O)[C@H]1N2C(=O)c3ccccc3C2SC1(C)C)C(=O)NCc1ccco1 (stereo not given in full)
-5%	CCOC(=O)N1CCN(C(=O)c2cn(C)c3ccc(S(=O)(=O)N(CC)CC)cc3c2=O)CC1
-7%	CCC(=O)N1CCN(c2ccccc2NC(=O)COc2cccc(C)c2C)CC1
-11%	O=C(NCc1cccnc1)c1ccc([N+](=O)[O-])o1
2%	COC(=O)c1cccc(NS(=O)(=O)c2cccs2)c1C
-15%	COc1ccc(C(=O)/C=C2/C(=O)Nc3ccccc32)cc1OC
-9%	CC(=O)Nc1ccc(NC(=O)CSc2ncc(C(=O)Nc3ccc(Cl)cc3)c(=O)n2C)cc1
7%	CN(C)c1nc(-c2ccccc2)c2cc(Cl)ccc2n1
6%	Cc1cc(C)c2oc(-c3cccc(NC(=O)c4ccco4)c3)nc2c1
1%	COc1cc2c(cc1OC)CN(CC(=O)NC(=O)NC1CCCCC1)CC2
7%	O=C(Cn1nc(-c2ccccc2)ccc1=O)Nc1ccc(N2CCN(C(=O)c3cccs3)CC2)cc1
-15%	COc1ccc(-n2c(=O)c3ccccc3c3ccccc3c2=O)c(OC)c1
-6%	N=c1c2ccccc2nnn1-c1cccc(C(F)(F)F)c1
-10%	O=C(CCNC(=O)c1ccco1)NCCc1c[nH]c2ccccc12
-1%	N#Cc1nc(COc2ccccc2Cl)oc1NCc1ccco1
-3%	CC(C)(C)n1ncc2c(=O)n(CC(=O)N3CCN(c4ccccc4)CC3)cnc21
-7%	CC1=C(C(=O)N(C)C)C(c2ccccc2OC(F)F)NC(=O)N1 (stereo not given)
-10%	COc1ccccc1CNC(=O)C1CCN(S(=O)(=O)c2ccc3nc4c(c(C(=O)O)c3c2)CCCC4)CC1
0%	COc1ccc(N(CC(=O)NCc2ccc(Cl)cc2)S(=O)(=O)c2c(C)noc2C)cc1
-19%	C=CC[n+]1c(-c2ccc(C)cc2)csc1Nc1c(C)n(C)n(-c2ccccc2)c1=O

# An excerpt of these results, tab-delimited:
SMILES	VDR inh
CCC(=O)N1CCN(c2ccccc2NC(=O)COc2cccc(C)c2C)CC1	-7%
O=C(NCc1cccnc1)c1ccc([N+](=O)[O-])o1	-11%
COC(=O)c1cccc(NS(=O)(=O)c2cccs2)c1C	2%
COc1ccc(C(=O)/C=C2/C(=O)Nc3ccccc32)cc1OC	-15%
CC(=O)Nc1ccc(NC(=O)CSc2ncc(C(=O)Nc3ccc(Cl)cc3)c(=O)n2C)cc1	-9%
CN(C)c1nc(-c2ccccc2)c2cc(Cl)ccc2n1	7%
Cc1cc(C)c2oc(-c3cccc(NC(=O)c4ccco4)c3)nc2c1	6%
COc1cc2c(cc1OC)CN(CC(=O)NC(=O)NC1CCCCC1)CC2	1%
O=C(Cn1nc(-c2ccccc2)ccc1=O)Nc1ccc(N2CCN(C(=O)c3cccs3)CC2)cc1	7%
COc1ccc(-n2c(=O)c3ccccc3c3ccccc3c2=O)c(OC)c1	-15%
N=c1c2ccccc2nnn1-c1cccc(C(F)(F)F)c1	-6%
O=C(CCNC(=O)c1ccco1)NCCc1c[nH]c2ccccc12	-10%
N#Cc1nc(COc2ccccc2Cl)oc1NCc1ccco1	-1%
CC(C)(C)n1ncc2c(=O)n(CC(=O)N3CCN(c4ccccc4)CC3)cnc21	-3%
CC1=C(C(=O)N(C)C)C(c2ccccc2OC(F)F)NC(=O)N1 (stereo not given)	-7%
COc1ccccc1CNC(=O)C1CCN(S(=O)(=O)c2ccc3nc4c(c(C(=O)O)c3c2)CCCC4)CC1	-10%
COc1ccc(N(CC(=O)NCc2ccc(Cl)cc2)S(=O)(=O)c2c(C)noc2C)cc1	0%
C=CC[n+]1c(-c2ccc(C)cc2)csc1Nc1c(C)n(C)n(-c2ccccc2)c1=O	-19%

# The list goes on.
VDR inh	compound
11%	NC(=O)c1ccsc1NC(=O)COC(=O)c1ccccc1NCc1ccco1
-11%	C[C@H](NC(=O)c1nc[nH]c1C(=O)N[C@H](C)c1ccccc1)C(=O)OC(C)(C)C
4%	COc1cccc(NC(=O)CSc2nc3ccccc3c(=O)n2Cc2cccs2)c1
-1%	CCN(CCS(=O)(=O)c1ccc(Cl)cc1)C(=O)Nc1ccccc1
2%	COC(=O)c1cc2oc3ccccc3c2n1CC(=O)Nc1cccc(SC)c1
11%	CCC(C(=O)N1CC2(C)CC1CC(C)(C)C2)N1C(=O)c2ccccc2C1=O (stereo not given)
-17%	COC(=O)c1ccc(NC(=O)CSc2nnc3c4ccccc4n(C(C)C)c3n2)cc1
-14%	COc1ccc(NC(=O)CN(C)C(=O)c2cccnc2Sc2ccc(C)c(C)c2)cc1
-21%	CCCc1cc(-c2n[nH]c(=S)n2CC(C)C)cs1
7%	CCc1ccc(NC(=O)C(C)OC(=O)C2CCC(=O)N2)cc1 (stereo not given)
?	Cc1c(Cc2ccc3c(c2)OCO3)sc(NC(=O)c2cccc3ccccc23)c1C(N)=O
5%	Cc1nn(-c2cc(C)c3ccccc3n2)c2c1CCC2
6%	O=C(CCC(F)(F)F)N1CCC(CO)(CCc2ccccc2)CC1
-5%	Cc1cc(Br)ccc1NC(=O)c1sc2ncnc(N3CCN(c4ccccn4)CC3)c2c1C
6%	CCOC(=O)c1c(NC(=O)CSc2cn(CCNC(=O)c3cccc(C(F)(F)F)c3)c3ccccc23)sc2c1CCC2
6%	CC(C)(C)Sc1ccc(/C=N/O)cc1[N+](=O)[O-]
-4%	COCCn1c(N)c(N(Cc2ccccc2)C(=O)c2ccc(-c3ccc(Cl)cc3)o2)c(=O)[nH]c1=O
-3%	O=C(NCc1ccc(Cl)cc1)C1C2C=CC3(CN(Cc4cccnc4)C(=O)C13)O2 (stereo not given)
3%	CCOC(=O)c1ccc(NC(=S)N2CCN(CCN=CC3=C(O)CC(c4ccccc4)CC3=O)CC2)cc1 (stereo not given)
-8%	COc1cc2ccccc2cc1C(=O)Nc1ccc2oc(-c3cc(Br)ccc3Cl)nc2c1
-5%	CCC1Oc2ccc(C)cc2N(CC(=O)N2CCN(c3ccccc3OC)CC2)C1=O (stereo not given)
5%	CCOC(=O)c1noc2ncn(CC(=O)O)c(=O)c12
-8%	C=C(C)C(=O)OCC(=O)NCc1ccccc1
-9%&13%	Cc1ccc(C)c(N2CCN(S(=O)(=O)c3csc(C(N)=O)c3)CC2)c1

# The last two records of the part before open the next one.
VDR inh	compound
-8%	C=C(C)C(=O)OCC(=O)NCc1ccccc1
-9%&13%	Cc1ccc(C)c(N2CCN(S(=O)(=O)c3csc(C(N)=O)c3)CC2)c1
-2%	O=P(O)(CCc1ccccn1)CN1CCCCC1
-3%	CC1CCN(c2cc(C#N)c(C#N)cc2[N+](=O)[O-])CC1
6%	COC(=O)CN1C(=O)C(C)(C)c2cc(S(=O)(=O)Nc3ccc(Br)cc3F)ccc21
6%	COc1ccccc1CCNC(=O)CSc1ccc(-c2cccs2)nn1
11%	O=C(CCN1CCN(c2ccccn2)CC1)Nc1ccc(F)cc1
-27%&7%	CCOC(=O)C(C)Sc1ccc2nnc(CCNS(=O)(=O)c3ccc(C)cc3)n2n1 (stereo not given)
8%	Cc1ccc(OCc2ccc(C(=O)Nc3c(C)nn(Cc4c(F)c(F)c(F)c(F)c4F)c3C)o2)c([N+](=O)[O-])c1
-6%	CCOC(=O)Nc1ccc2c(c1)N(C(=O)CCN(C)C)c1ccccc1S2
